Source: PubChem BioAssay (several laboratories)
VCAM-1 augmentation = enhancers of VCAM-1 display on endothelial cells, imaging, high-content imaging, pooled HUVEC, TNFa stimulus (AID 457); 10,000 compounds, 0.2% hits; Pooled HUVEC, TNFa-induced VCAM-1 immunofluorescence imaging; hits of this screen are not shown here; calls only;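 active = a top-ranked rise in VCAM-1 staining upheld on image or statistical review; inactive = the rest, including candidates rejected on review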;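 also: compounds tested at 5 µM in the well; cells exposed to compound for 24 hours before fixing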
VCAM-1 inhibition = inhibitors of TNFa-induced VCAM-1 surface display, cell-based, plate reader, pooled HUVEC, TNFa stimulus (AID 454). HUVEC TNFa-induced VCAM-1 surface immunofluorescence, plate reader; numbers were filed only for top-ranked candidate wells. inhibition, % at 5 µM. 10,000 compounds, 0.2% hits;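 active = compound among top-ranked inhibitors of TNF-induced VCAM-1 adhesion protein staining, with the hit upheld by image or statistical review; inactive = the rest, including hits rejected on review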;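 also: 0% = TNFa with vehicle and 100% = cells without TNFa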
VCAM-1 down imaging = inhibitors of TNFa-induced VCAM-1 surface display, imaging, high-content imaging, pooled HUVEC, TNFa stimulus (AID 456); HUVEC TNFa-induced VCAM-1 surface expression, immunofluorescence imaging; numbers were filed only for top-ranked candidate wells; one-dose inhibition, % at 5 µM; IC50 in µM for titrated hits; 10,000 compounds, 0.2% hits;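 active = top tenth filtered wells with inhibition above zero that passed visual or statistical confirmation; inactive = the rest, including hits rejected on review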;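 also: 0% = stimulated vehicle wells and 100% = unstimulated cells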
FPRL1 binder = human FPRL1 ligands by binding competition, primary screen, cell-based, FPR counter-screen, flow cytometry. FPRL1-expressing cells, fluorescent ligand binding inhibition. inhibition, %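 (tested at 6.7 µM)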. 24,000 compounds, 0.3% hits. AID 441, 2006;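 also: 0% = buffer alone and 100% = receptor blocker peptide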
Target sequence (P25090 whole entry, looked up): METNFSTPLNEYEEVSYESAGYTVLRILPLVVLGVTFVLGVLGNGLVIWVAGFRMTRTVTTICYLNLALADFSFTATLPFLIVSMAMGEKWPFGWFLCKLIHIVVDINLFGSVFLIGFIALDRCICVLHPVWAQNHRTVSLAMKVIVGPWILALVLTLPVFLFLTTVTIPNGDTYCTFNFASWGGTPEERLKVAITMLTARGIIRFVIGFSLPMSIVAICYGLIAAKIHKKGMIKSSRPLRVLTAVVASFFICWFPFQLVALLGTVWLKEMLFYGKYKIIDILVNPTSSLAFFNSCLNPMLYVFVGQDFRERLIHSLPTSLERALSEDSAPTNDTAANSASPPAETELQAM
FPR binder = human FPR ligands by binding competition, primary screen, cell-based, FPRL1 counter-screen, flow cytometry | FPR-expressing cells, fluorescent ligand binding | inhibition, %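 (tested at 6.7 µM)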 | 24,000 compounds, 0.74% hits | AID 440, 2006;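 also: 0% = buffer wells and 100% = receptor blocker peptide wells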
Target sequence (P21462 whole entry, looked up): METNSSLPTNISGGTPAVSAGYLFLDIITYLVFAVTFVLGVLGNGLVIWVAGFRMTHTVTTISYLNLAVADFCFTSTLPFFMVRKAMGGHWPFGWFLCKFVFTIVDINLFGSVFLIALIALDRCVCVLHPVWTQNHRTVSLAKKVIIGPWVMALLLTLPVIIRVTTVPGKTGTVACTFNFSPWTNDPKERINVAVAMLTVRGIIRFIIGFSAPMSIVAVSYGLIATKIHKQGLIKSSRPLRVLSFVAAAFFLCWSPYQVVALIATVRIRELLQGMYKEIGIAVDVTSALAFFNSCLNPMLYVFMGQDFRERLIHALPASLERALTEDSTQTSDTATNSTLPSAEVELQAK
* = called active by the depositor; i = inactive; ? = inconclusive; · = no result given.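 The calls were made as follows, unless noted: active = mean above 30%; inconclusive = self-fluorescent; inactive = the rest.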

SMILES	VCAM-1 augmentation	VCAM-1 inhibition	VCAM-1 down imaging	FPRL1 binder	FPR binder
CCOC(=O)N1CCN(Cc2nc3c(c(=O)n(C)c(=O)n3C)n2Cc2ccccc2)CC1	i	i	i	-8	-7
COC(=O)c1cccc(NC(=O)Cc2coc3cc(OC)ccc23)c1	i	i	i	-8	-4
CC(=O)c1ccc(OCC(C)C)c(CN2CCCCC2)c1	·	·	·	0	2
CCCCCCn1c(CN2CCCCC2)nc2c1c(=O)n(C)c(=O)n2C	·	·	·	-9	-6
COc1ccccc1-c1nnc2sc(-c3ccc(N(C)C)cc3)nn12	i	i	i	2	-5
O=C(O)CCNc1ccc2c(c1)OCCO2	i	i	i	4	0
Cc1ccc(CN2CCN(C(=O)C3CCC3)CC2)cc1	i	i	i	-2	2
COc1ccc(C2=NOC(C(=O)Nc3cc(C)nn3-c3ccccc3)C2)cc1OC (configuration not stated)	·	·	·	3	5
CCn1cc(C(=O)NCCCOC)c2cc(OC)c(OC)cc2c1=O	·	·	·	2	0
Nc1nc(Cl)nc2c1ncn2[C@H]1C[C@H](O)[C@@H](CO)O1	i	i	i	2	-4
COC(=O)C1=C(C)OC(N)=C(C#N)C1c1ccccc1 (configuration not stated)	i	i	i	-4	-2
CC(C)c1ccc(NC(=O)C(c2ccccc2)N2CCN(C(=O)c3ccco3)CC2)cc1 (configuration not stated)	·	·	·	11	7
CN(CCNC(=O)C1CC(=O)N(c2ccc(F)c(Cl)c2)C1)Cc1ccccc1 (configuration not stated)	·	·	·	2	-8
CCOC(=O)N1CCN(c2c(NCc3ccccc3OC)c(=O)c2=O)CC1	·	·	·	7	5
Cc1cc(NC(=O)COc2cccc(Oc3ccccc3)c2)no1	i	i	i	10	5
O=C(CSc1nc2ccccc2c(=O)n1Cc1ccco1)N1CCCCCC1	·	·	·	-4	8
Cc1nn(C(C)C(=O)N2CCCCC2)c(=O)c2c1sc1ccccc12 (configuration not stated)	·	·	·	0	-8
CCC1CCCCN1C(=O)CSc1nnc(-c2ccc3c(c2)OCCO3)o1 (configuration not stated)	·	·	·	-2	5
CCOCCCNC(=O)C(c1ccc(C)cc1)N1CCOCC1 (configuration not stated)	·	·	·	3	-7
COc1ccc(C)cc1S(=O)(=O)N1CCN(S(=O)(=O)c2cc(C)ccc2OC)CC1	i	i	i	2	-11
O=C(CCn1c(=O)[nH]c2ccsc2c1=O)N1CCN(c2cccc(Cl)c2)CC1	·	·	·	8	10
O=C(Nc1ncc(Br)s1)C1CCCN1S(=O)(=O)c1cccc2cccnc12 (configuration not stated)	i	i	i	7	-4
CN1CCN(C(=O)C2CCN(S(=O)(=O)c3ccc4c(c3)oc(=O)n4C)CC2)CC1	i	i	i	3	-5
CC1CCCCC1NC(=O)C1CCN(S(=O)(=O)N2CCCCCC2)CC1 (configuration not stated)	·	·	·	-1	-8
CC1CC(C)CN(S(=O)(=O)c2ccc(C(=O)Nc3nnc(-c4cccs4)o3)cc2)C1 (configuration not stated)	·	·	·	4	4

An excerpt from above in order of number of heavy atoms, rising:
SMILES	VCAM-1 augmentation	VCAM-1 inhibition	VCAM-1 down imaging	FPRL1 binder	FPR binder
CCOCCCNC(=O)C(c1ccc(C)cc1)N1CCOCC1 (configuration not stated)	·	·	·	3	-7
CCn1cc(C(=O)NCCCOC)c2cc(OC)c(OC)cc2c1=O	·	·	·	2	0
CCOC(=O)N1CCN(c2c(NCc3ccccc3OC)c(=O)c2=O)CC1	·	·	·	7	5

Next entries
SMILES	VCAM-1 augmentation	VCAM-1 inhibition	VCAM-1 down imaging	FPRL1 binder	FPR binder
COc1ccc(N2C(=O)CSC2c2ccc3c(c2)OCO3)c(OC)c1 (configuration not stated)	·	·	·	-5	-6
CCOC(=O)c1ccc(NC(=O)CC2C(=O)N(c3ccc(F)cc3)C(=O)N2CCCOC)cc1 (configuration not stated)	·	·	·	1	-6
COc1ccc(CN2CC(C(=O)NCc3ccccn3)CC2=O)cc1 (configuration not stated)	i	i	i	-2	3
Cc1[nH]c(=O)[nH]c(=O)c1S(=O)(=O)NCCc1ccc(S(N)(=O)=O)cc1	·	·	·	-2	4
c1cc2c(cc1C1=Nn3c(nnc3C3CCCCC3)SC1)OCO2	i	i	i	1	20
O=C(COc1ccc(=O)n(-c2ccccc2)n1)Nc1ccccc1	i	i	i	-2	2
Cc1cc2ccccc2c(=O)n1CC(=O)N(C)c1ccc(F)cc1	i	i	i	-2	-3
COc1ccccc1CNC(=O)C1CC(=O)N(C2CCCC2)C1 (configuration not stated)	·	·	·	2	1
Cc1ccc(CN2C(=O)CCC2C(=O)NCCN(CC(C)C)CC(C)C)cc1 (configuration not stated)	·	·	·	6	-8
CCCCSc1nc2c(cnn2-c2ccc(Cl)cc2)c(=O)[nH]1	i	i	i	4	3
O=C(CN(Cc1ccc(F)cc1)C(=O)c1ccco1)NCc1ccc(F)cc1	i	i	i	-3	7
COc1ccc(C(=O)Nc2cccnc2)cc1C(=O)Nc1cccnc1	i	i	i	-4	-3
CCOc1ccc2nc(N3CCC(C(=O)N4CCN(C5CCCCC5)CC4)CC3)sc2c1	i	i	i	2	-1
CCC(C)(C(=O)NC1CCCCC1)N(Cc1ccco1)C(=O)CNC(=O)c1ccccc1 (configuration not stated)	·	·	·	14	-3
O=C(CCCCCn1c(=O)[nH]c2ccsc2c1=O)N1CCCCC1	i	i	i	5	8
COc1ccc(-c2nc(Cn3c(SCc4cccc(F)c4)nc4ccncc43)c(C)o2)cc1OC	·	·	·	2	-4
c1cn2cc(CSC3CCCCC3)nc2s1	i	i	i	-3	0
COc1ccc(NC(=O)CCc2ccccc2)cc1NC(=O)c1ccco1	i	i	i	-3	-7
CN(C=O)CP(=O)(O)CCN1CCCC1=O	i	i	i	3	0
COc1ccc(Br)cc1CN1CCCC(C(=O)N2CCCCCC2)C1 (configuration not stated)	·	·	·	-6	4
COc1c(Br)cc2c(C)c(C(=O)O)oc2c1Br	i	i	i	-3	-4
CC(C)Cn1c(-c2ccc(F)cc2)n[nH]c1=S	i	i	i	4	1
COc1ccc(N2C(=O)C3CCCN3C2c2cccc(C)c2)cc1Cl (configuration not stated)	·	·	·	-2	1
COC(=O)c1ccccc1NC(=O)c1noc2c1CC(C(C)(C)C)CC2 (configuration not stated)	i	i	i	-12	19
Cc1ccc(S(=O)(=O)N(CC(=O)N2CCC(C(N)=O)CC2)Cc2ccc(F)cc2)cc1	i	i	i	-1	10
(further entries)
SMILES	VCAM-1 augmentation	VCAM-1 inhibition	VCAM-1 down imaging	FPRL1 binder	FPR binder
CCn1c(SCC(=O)Nc2ccc(C(C)=O)cc2)nc2ccccc21	i	i	i	-6	-2
Cc1ccc(S(=O)(=O)C2(C(=O)Nc3nccs3)CC2)cc1	i	i	i	-3	0
O=C(CN1CCCC(O)C1)N1c2ccccc2Sc2ccc(C(F)(F)F)cc21 (configuration not stated)	·	·	·	-6	1
COc1ccc(NC(=O)CSc2nnc(CNC(=O)c3ccco3)n2-c2ccccc2OC)cc1	·	·	·	13	9
Nc1c(C(=O)NCc2ccco2)nnn1Cc1ccccc1	i	i	i	3	-1
CCOC(=O)C1=C(CS(=O)(=O)c2ccccc2)NC(=O)NC1c1ccccc1OCC (configuration not stated)	·	·	·	0	5
Cc1ccc(-c2nc(C3CCCN(S(=O)(=O)c4ccc(C)cc4)C3)no2)cc1 (configuration not stated)	·	·	·	5	-1
COc1ccc(OC)c(S(=O)(=O)N2CCCCC2C(=O)N2CCN(c3ccccn3)CC2)c1 (configuration not stated)	·	·	·	6	-8
COc1cccc(/C=C/c2ccncc2)c1OC	·	·	·	-4	4
Cc1ccc(CNC(=O)C2CC(=O)OC23CCCC3)c(C)c1 (configuration not stated)	i	i	i	10	4
O=C(c1ccccc1)c1cccn1CC(=O)N1CCN(c2ccccc2)CC1	·	·	·	-19	4
CC(=O)c1c(C)[nH]c(C(=O)NCCc2cccc(C)c2)c1C	·	·	·	-5	-8
CCN(CC)S(=O)(=O)c1ccc2c(c1)c(=O)c(C(=O)N1CCN(c3ccccc3)CC1)cn2C	·	·	·	2	-1
Cc1nc(NC2=NCN(CCN3CCOCC3)CN2)nc2c(C)cccc12	i	i	i	0	-6
CCOC(=O)N1CCN(C(=O)CSc2ncnc3ccccc23)CC1	i	i	i	-4	-10
COc1cc(C2C(C(=O)c3cccs3)=C(O)C(=O)N2c2cc(C)on2)ccc1O (configuration not stated)	·	·	·	3	12
O=C(c1cccn2c(=O)c3cc(Br)ccc3nc12)N1CCN(c2ccccn2)CC1	·	·	·	-1	4
COc1ccc(C2=NO[C@@H]3C(=O)N(c4ccc5c(c4)OCCO5)C(=O)[C@H]23)cc1OC	i	i	i	10	1
CCc1nnc(NC(=O)c2ccc(S(=O)(=O)N(CC(C)C)CC(C)C)cc2)o1	i	i	i	5	-4
CCCOc1ccc(N2CC(C(=O)Nc3ccc4c(c3)OCO4)CC2=O)cc1 (configuration not stated)	i	i	i	6	12
CN1C(=O)CC(N2CCN(C(=O)CN3CCCC3)CC2)C1=O (configuration not stated)	·	·	·	10	6
COc1ccc(-c2nc(CSCC(=O)NCc3ccco3)c(C)o2)cc1	·	·	·	-2	0
CCOC(=O)c1ccc(NC(=O)C2CCCN(S(=O)(=O)c3cnc[nH]3)C2)cc1 (configuration not stated)	·	·	·	2	0
O=C(O)CC(c1ccc(Cl)cc1)N1C(=O)CCC1=O (configuration not stated)	·	·	·	-2	1
Cc1nn2c(=O)cc(CSc3nc4ccccc4[nH]3)nc2s1	·	·	·	-1	-2

Single entries from above:
In FPRL1 binder, O=C(c1cccn2c(=O)c3cc(Br)ccc3nc12)N1CCN(c2ccccn2)CC1 is listed with -1
In FPR binder, CN(CCNC(=O)C1CC(=O)N(c2ccc(F)c(Cl)c2)C1)Cc1ccccc1 (configuration not stated) is listed with -8

The listing continues.
SMILES	VCAM-1 augmentation	VCAM-1 inhibition	VCAM-1 down imaging	FPRL1 binder	FPR binder
CN(C)/C=N/c1ncnc2c1cnn2-c1ccc(C(F)(F)F)cn1	i	i	i	4	-6
COc1ccccc1N1CCN(C(=O)c2cc3c(=O)n(C)c4ccccc4c3n2C)CC1	·	·	·	0	-1
COc1cc(NC(=O)c2cc(-c3cccs3)on2)cc(OC)c1OC	·	·	·	-2	0
CCN1CCN(C(=O)C2CCN(S(=O)(=O)c3cccc4cccnc34)CC2)CC1	·	·	·	-6	-1
Cc1cccc(N2CCN(C(=O)Cn3sc4nc(C)cc(C)c4c3=O)CC2C)c1 (configuration not stated)	·	·	·	-8	?
CN(C)S(=O)(=O)NC(c1ccccc1)c1ccccc1	i	i	i	-6	-4
CCOc1ccc2c(c1)n(CO)c(=S)n2CO	i	i	i	2	-4
Cc1ccc(S(=O)(=O)c2n[nH]n3c2nc(=O)c2ccccc23)cc1	·	·	·	7	8
CC1CCc2cc(F)cc3c(=O)c(C(=O)O)cn1c23 (configuration not stated)	i	i	i	-6	-4
COc1cccc(NC(=O)COC(=O)c2cccnc2)c1	i	i	i	-4	-9
Cc1nc2cc(NC(=O)N3c4ccccc4CC3C)ccc2o1 (configuration not stated)	i	i	i	0	-1
COc1ccc(CCNC(=O)C2CCCN(c3nn4c(=O)cc(C)nc4s3)C2)cc1OC (configuration not stated)	i	i	i	5	1
CCS(=O)(=O)NCC(c1cccnc1)N1CCN(c2ccccc2F)CC1 (configuration not stated)	·	·	·	-1	3
CCc1c(O)nc(SCC(=O)NCc2ccco2)[nH]c1=O	·	·	·	-2	3
CCCCN1C[C@H](O)[C@@H](O)[C@H](O)[C@H]1CO	i	i	i	1	4
CC(=O)[C@H]1CC[C@H]2[C@@H]3CCC4=CC(=O)CC[C@]4(C)[C@H]3[C@H](O)C[C@]12C	i	i	i	10	4
Cc1ccc(-n2nc(C(=O)N3CCN(C)CC3)c3c4ccccc4n(C)c3c2=O)cc1	i	i	i	2	-2
COc1ccc(C(=O)N2CC(=O)N(CCc3ccccc3)C(=O)C2)cc1OC	·	·	·	-4	-3
O=C(CSc1ccc2nnc(-c3cccc(F)c3)n2n1)NCC1CCCO1 (configuration not stated)	·	·	·	0	-3

Compound profiles, as listed above. Order of values: VCAM-1 augmentation	VCAM-1 inhibition	VCAM-1 down imaging	FPRL1 binder	FPR binder
Cc1ccc(S(=O)(=O)c2n[nH]n3c2nc(=O)c2ccccc23)cc1 is entered as ·	·	·	7	8
COc1cccc(NC(=O)COC(=O)c2cccnc2)c1 is entered as i	i	i	-4	-9
CC1CCc2cc(F)cc3c(=O)c(C(=O)O)cn1c23 (configuration not stated) is entered as i	i	i	-6	-4
CCN1CCN(C(=O)C2CCN(S(=O)(=O)c3cccc4cccnc34)CC2)CC1 is entered as ·	·	·	-6	-1
CCS(=O)(=O)NCC(c1cccnc1)N1CCN(c2ccccc2F)CC1 (configuration not stated) is entered as ·	·	·	-1	3

These rows are one share of the data. The share of hits here may be higher or lower than overall.
